Screening data: PubChem BioAssay, Broad Institute
AF4-AF9 inh: MLL-AF4/AF9 protein interaction inhibition; AlphaScreen, biotin-AF4 peptide binding to FLAG-AF9; AID 651704; 0.47% of 350,000 active; inhibition, % at 10 µM; P42568;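 active means every replicate reaching a set inhibition limit, whatever the replicate mean, cut at about 25% in these data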;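 further: 0% = plate neutral control median and 100% = total signal loss; the record names both 10 and 1 µM as test concentration; the first replicate is given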
Target sequence (P42568 whole entry, looked up): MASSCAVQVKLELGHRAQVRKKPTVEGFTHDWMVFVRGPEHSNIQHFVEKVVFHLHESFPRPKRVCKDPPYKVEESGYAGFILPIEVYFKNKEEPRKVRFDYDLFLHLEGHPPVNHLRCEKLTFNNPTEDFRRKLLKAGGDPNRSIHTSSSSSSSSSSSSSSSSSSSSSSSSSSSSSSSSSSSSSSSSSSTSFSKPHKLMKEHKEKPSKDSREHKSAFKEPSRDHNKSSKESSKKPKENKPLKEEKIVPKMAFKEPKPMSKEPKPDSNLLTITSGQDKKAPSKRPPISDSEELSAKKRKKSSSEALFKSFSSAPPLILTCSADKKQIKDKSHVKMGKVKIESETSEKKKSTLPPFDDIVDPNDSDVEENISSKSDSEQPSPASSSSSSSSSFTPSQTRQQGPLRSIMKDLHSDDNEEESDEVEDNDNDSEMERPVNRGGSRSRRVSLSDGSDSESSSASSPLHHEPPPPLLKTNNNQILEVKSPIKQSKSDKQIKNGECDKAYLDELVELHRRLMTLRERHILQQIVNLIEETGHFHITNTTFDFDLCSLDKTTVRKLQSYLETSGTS
Ecoli rRNA inh: inhibitors of bacterial rRNA selective over humanized ribosomes. E. coli WT GFP vs humanized-ribosome RFP mutants, fluorescence, 24 h; hits give low values; DMSO median 0, no signal -100. GFP signal change (wild-type ribosome), % (test concentration not listed). 1.6% of 350,000 active. AID 720706;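 active means significant combined selectivity score with lowered wild-type GFP, culture density cut under 30%, mutant RFP and density less affected; inactive means any of these conditions unmet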; further: one replicate is shown; some compounds called inactive have numbers as strong as hits
Ecoli rRNA inh OD600: recorded beside Ecoli rRNA inh, whose call it bears; OD600 change, %; measured here: OD600 growth;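 optical density of the mix in the first replicate; 0 = DMSO median and -100 = no signal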
Ecoli rRNA inh RFP: further read-out of Ecoli rRNA inh, marked with its call; RFP signal change, %; measured here: RFP humanized mutant strains;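 first replicate; 0 = DMSO median and -100 = no signal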
* marks the source's active call; other numbers are inactive results. Some of the compounds tested; count on the stated rates, not on these rows.

Ecoli rRNA inh,AF4-AF9 inh,Ecoli rRNA inh OD600,Ecoli rRNA inh RFP,molecule
0,1.5,6,-4.3,O=C(C1CC1)N1C[C@@H]2[C@H](c3ccccc31)[C@H](CO)N2S(=O)(=O)c1ccccc1
-1,-5.1,3,-1.2,COCC(=O)Nc1ccc2c(c1)[C@H]1C[C@@H](CC(=O)N[C@@H](C)c3ccccc3)O[C@H](CO)[C@H]1O2
2,3.4,-3,0.0,CN1c2ccc(-c3ccc(F)cc3)cc2[C@H]2[C@H](CCN2C(=O)C2CCOCC2)[C@@H]1CO
-11,-4.6,-45,16,O=C(Nc1ccccc1)N1CCCCN2[C@H](C1)[C@@H](c1ccc(C#Cc3cccnc3)cc1)[C@@H]2CO
3,-1.2,6,2.1,CN(C)C(=O)C[C@H]1CC[C@@H]2[C@@H](COc3ccc(NC(=O)c4ccc(F)cc4)cc3C(=O)N2C)O1
6,2.5,5,-2.7,CCCNC(=O)C1(C)CCN(CCS(=O)(=O)c2ccc(C)cc2)C1 (configuration not stated)
-52,-2.2,-75,-14,C[C@H]1CN([C@@H](C)CO)C(=O)Cc2cc(NC(=O)Nc3ccc(F)cc3)ccc2O[C@H]1CN(C)Cc1ccc2c(c1)OCO2
3,3.5,4,1.5,CCOC(=O)N1CCN(C(=O)C[C@H]2C[C@@]3(C(=O)OC)C(=C[C@H](C(C)(C)C)O[C@@H]3C)N(CCC3=CCCCC3)C2=O)CC1
4,1.6,8,-2.0,C[C@@H]1CN([C@H](C)CO)S(=O)(=O)c2ccc(-c3ccccc3)cc2O[C@H]1CN(C)C(=O)c1ccc2c(c1)OCO2
3,-1.3,1,1.6,C[C@H]1CN([C@@H](C)CO)C(=O)c2cc(NS(=O)(=O)c3ccccc3)ccc2O[C@H]1CN(C)C(=O)Nc1ccccc1
-2,-0.2,-3,0.3,C[C@H]1CN([C@@H](C)CO)C(=O)Cc2cc(NC(=O)Nc3ccc(C(F)(F)F)cc3)ccc2O[C@H]1CN(C)S(=O)(=O)c1cccs1
3,2.0,3,0.8,CN(C)CC(=O)Nc1ccc2c(c1)[C@@H]1C[C@H](CC(=O)NCc3ccc4c(c3)OCO4)O[C@H](CO)[C@@H]1O2
5,-1.1,11,-1.7,O=C(c1ccc(C(F)(F)F)cc1)N(CCCn1ccnc1)C(c1ccccn1)c1nc2ccccc2[nH]1 (configuration not stated)
-51,-2.2,-75,-8.8,CC1(C(=O)NCc2ccccc2Br)CCN1Cc1csc2ccccc12 (configuration not stated)
1,3.5,-1,1.8,CCCNC(=O)C[C@H]1C[C@H]2c3cc(NC(=O)NC4CCCCC4)ccc3O[C@H]2[C@@H](CO)O1
4,5.8,3,1.3,COc1ccccc1-c1ccc([C@H]2[C@H]3CN(C(=O)c4ccncc4)CCCCN3[C@H]2CO)cc1
0,-3.7,2,0.6,C[C@@H]1CN([C@@H](C)CO)S(=O)(=O)c2ccc(C#CC3CCCC3)cc2O[C@H]1CN(C)C(=O)Cc1ccccc1
5,5.6,12,3.2,O=C(Nc1ccc2c(c1)OCCO2)C(c1ccnc2ccccc12)n1c(=O)c(-c2ccco2)nc2ccccc21 (configuration not stated)
-2,-1.9,2,2.2,O=C(NCC[C@@H]1CC[C@H](NS(=O)(=O)c2cccc(F)c2)[C@@H](CO)O1)C1CCOCC1
0,-7.2,8,0.9,COc1ccc(NC(=O)N(C)C[C@@H]2Oc3ccc(NC(=O)Nc4c(C)noc4C)cc3CC(=O)N([C@@H](C)CO)C[C@@H]2C)cc1
1,-2.1,0,0.7,Cn1cnc(S(=O)(=O)N2CCCCN3[C@H](CO)[C@@H](c4ccc(-c5ccccc5)cc4)[C@H]3C2)c1
3,-2.0,-1,0.6,CCC(=O)Nc1ccc2c(c1)C(=O)N(C)C[C@@H](OC)[C@@H](C)CN(Cc1cccc(F)c1)[C@@H](C)CO2
0,0.7,4,-3.2,CO[C@H]1CN(C)C(=O)c2ccc(NC(=O)C3CCC3)cc2OC[C@H](C)N(Cc2nccs2)C[C@H]1C
4,-15,6,-0.5,O=C(NC[C@@H]1N[C@@H](CO)[C@H]1c1ccccc1)C1CCCC1
-5,4.4,-12,0.0,Cc1ccc(S(=O)(=O)N(C)C[C@@H]2Oc3c(NC(=O)NC4CCCCC4)cccc3C(=O)N([C@H](C)CO)C[C@@H]2C)cc1
-16,-16,-24,4.7,N#Cc1ccc(-c2ccc3c(c2)[C@H]2[C@H](CCN2C(=O)C2CCC2)[C@H](CO)N3)cc1
-3,2.7,-4,-1.6,COc1ccc(NC(=O)Nc2ccc3c(c2)C(=O)N([C@H](C)CO)C[C@H](C)[C@H](CN(C)S(=O)(=O)c2ccccc2)O3)cc1
-3,1.9,-4,0.2,C[C@@H]1CN([C@H](C)CO)C(=O)c2cccc(NC(=O)C3CC3)c2O[C@H]1CN(C)Cc1ccc(-c2ccccc2)cc1
-1,-4.1,-4,-2.1,CC(C)NC(=O)N1[C@H](C(=O)N2CCc3ccccc3C2)[C@@H](CO)[C@@H]2Cn3c(cccc3=O)[C@@H]21
-1,-1.2,10,-2.8,Cc1noc(C)c1S(=O)(=O)Nc1ccc2c(c1)CC(=O)N([C@@H](C)CO)C[C@H](C)[C@H](CN(C)C(=O)Nc1ccc(F)cc1)O2
1,-0.8,2,-2.2,C[C@H](CO)N1C[C@H](C)[C@@H](CN(C)C)Oc2cc(-c3cccc(C(=O)N(C)C)c3)ccc2S1(=O)=O
14,-4.7,19,4.7,COc1ccc(NCC(=O)Nc2c(C)cccc2C)cc1S(=O)(=O)N1CCOCC1
-57,0.5,-76,-17,CC1(C(=O)NCc2ccccc2Br)CCN1Cc1c(F)cccc1F (configuration not stated)
-3,7.7,-4,2.8,CC(C)CC#Cc1ccc2c(c1)O[C@H](CN(C)C(=O)Cc1ccccn1)[C@@H](C)CN([C@H](C)CO)S2(=O)=O
-4,-2.9,-5,1.8,O=C(C[C@@H]1CC[C@@H]2[C@H](COC[C@H](O)CN2Cc2nccs2)O1)NCc1ccccc1
0,-1.3,-12,2.1,C[C@H]1CN([C@@H](C)CO)C(=O)Cc2cc(NC(=O)NC3CCCCC3)ccc2O[C@H]1CN(C)Cc1ccc(C(F)(F)F)cc1
-2,-0.9,-5,1.6,Cc1ccc(S(=O)(=O)N(C)C[C@@H]2OCCCC[C@H](C)Oc3ccc(NC(=O)NC(C)C)cc3C(=O)N([C@@H](C)CO)C[C@H]2C)cc1
2,-5.2,7,-2.1,COCCCN1C(=O)C(CC(=O)NC2CCCCC2)CC(C(=O)N(C(C)C)C(C)C)=C1C (configuration not stated)
4,1.1,0,-1.2,COc1ccc2c3c(n(C)c2c1)[C@@H](CO)N(C(=O)C1CCCCC1)CC31CCN(C(=O)CN(C)C)CC1
-6,3.1,-23,8.9,O=C(C[C@@H]1C[C@H]2c3cc(NC(=O)c4ccc5c(c4)OCO5)ccc3O[C@H]2[C@H](CO)O1)NCc1ccc(Cl)cc1
-7,-2.1,-36,-8.6,CC(C)C[C@@H](COCc1ccc(F)cc1)N1CCN(C(=O)c2cccc(C(F)(F)F)c2)CCC1=O
4,-2.3,3,-0.3,OC[C@@H]1CN(Cc2ccccc2)C[C@H](n2cnc3c(N4CCCC4)ncnc32)O1
22,-4.2,25,4.3,COc1cc(F)ccc1-c1csc(C(NC(C)=O)c2ccc(F)c(F)c2)n1 (configuration not stated)
2,-2.7,2,-3.0,O=C(C1CC1)N1CC2(C1)[C@@H](c1ccccc1)[C@@H](CO)N2C(=O)CC1CC1
0,0.6,3,-0.5,COc1ccccc1-c1ccccc1[C@@H]1[C@@H](C#N)N(C(=O)CN(C)C)[C@H]1CO
-6,0.7,-33,-7.3,Cc1cccc(C)c1-n1nnnc1C1(C)CCC(=O)N1CC1CCCCC1 (configuration not stated)
-3,1.9,-20,14,COc1ccc(S(=O)(=O)Nc2ccc3c(c2)C(=O)N([C@@H](C)CO)C[C@H](C)[C@@H](CN(C)Cc2ccc(C(F)(F)F)cc2)OCCCC[C@@H](C)O3)cc1
-1,-4.4,1,-0.7,CN(C)C(=O)c1ccc(-c2ccc3c(c2)[C@H]2[C@H](CCN2C(=O)C2CCC2)[C@@H](CO)N3C)cc1
4,-9.0,5,-3.2,COc1ccc2c3c(n(C)c2c1)[C@H](CO)N(C)CC31CCN(C(=O)NC(C)C)CC1
1,3.1,-8,0.7,C[C@H](CO)N1C[C@H](C)[C@@H](CN(C)Cc2ccc(C(F)(F)F)cc2)Oc2ccc(NC(=O)CCC(F)(F)F)cc2C1=O
-6,14,-10,1.7,CN1c2ccc(C#Cc3cccnc3)cc2[C@@H]2[C@@H](CCN2C(=O)C2CCCC2)[C@@H]1CO
3,-2.0,5,-1.0,C[C@H]1CN([C@@H](C)CO)C(=O)c2cc(NC(=O)Nc3ccccc3)ccc2O[C@@H]1CN(C)C(=O)Nc1ccc(F)cc1
-1,-2.9,-2,3.9,N#Cc1ccc(-c2ccc([C@@H]3[C@H]4CN(C(=O)C5CCCCC5)CC(=O)N4[C@H]3CO)cc2)cc1
-12,0.3,-44,29,O=C(NC1CCCCC1)N1CC(=O)N2[C@H](CO)[C@@H](c3ccc(/C=C/c4ccccc4)cc3)[C@H]2C1
-2,2.1,-6,-3.1,C[C@@H]1CN([C@H](C)CO)C(=O)c2cc(NC(=O)c3ccncc3)ccc2O[C@@H](C)CCCCO[C@@H]1CN(C)S(=O)(=O)c1ccc(F)cc1
-1,-2.4,0,0.9,O=C(N[C@@H]1CC[C@H](CCNS(=O)(=O)c2ccccc2Cl)O[C@@H]1CO)c1ccc(F)cc1
4,0.1,9,3.1,CCCNC(=O)N1CC2(C1)CN(Cc1ccccn1)[C@@H](CO)c1c2c2ccc(OC)cc2n1C
2,0.7,1,-0.4,C[C@H]1CN([C@@H](C)CO)C(=O)Cc2cc(NC(=O)Nc3ccc(C(F)(F)F)cc3)ccc2O[C@@H]1CN(C)C(=O)NC1CCCCC1
-2,-1.1,1,0.1,O=C(C[C@H]1C[C@H]2c3cc(NC(=O)c4ccc5c(c4)OCO5)ccc3O[C@H]2[C@@H](CO)O1)NC1CCCC1
3,0.9,6,-3.9,CN(C)C(=O)[C@@H]1[C@@H](CO)[C@@H]2Cn3c(ccc(-c4ccccc4)c3=O)[C@H]1N2C(=O)C1CC1

Next section
Ecoli rRNA inh,AF4-AF9 inh,Ecoli rRNA inh OD600,Ecoli rRNA inh RFP,molecule
2,-4.8,-2,-0.8,COC(=O)C[C@@H]1CC[C@@H]2[C@H](COC[C@H](O)CN2S(=O)(=O)c2ccc(F)cc2)O1
0,-0.2,17,-4.6,N#C[C@@H]1N[C@@H](CO)[C@@H]1c1ccc(-c2cccc(F)c2)cc1
-6,-8.4,-7,2.3,COc1cccc(CNC(=O)[C@H]2CCCN2C(=O)[C@H]2CCCN2C(=O)c2cccc3ccccc23)c1
2,-1.3,-3,2.0,COc1ccc(S(=O)(=O)N(C)C[C@@H]2Oc3ccc(NS(=O)(=O)c4c(C)noc4C)cc3CC(=O)N([C@@H](C)CO)C[C@@H]2C)cc1
-4,-0.4,-6,-4.2,C[C@H](NC(=O)C[C@H]1C[C@H]2c3cc(NC(=O)c4cccnc4)ccc3O[C@H]2[C@@H](CO)O1)c1ccccc1
0,-0.5,-1,0.9,CO[C@@H]1CN(C)C(=O)c2ccc(NC(=O)Nc3ccccc3F)cc2OC[C@@H](C)N(Cc2ccccc2F)C[C@H]1C

An excerpt from above in order of formula weight, rising:
Ecoli rRNA inh,AF4-AF9 inh,Ecoli rRNA inh OD600,Ecoli rRNA inh RFP,molecule
2,-2.7,2,-3.0,O=C(C1CC1)N1CC2(C1)[C@@H](c1ccccc1)[C@@H](CO)N2C(=O)CC1CC1
0,0.6,3,-0.5,COc1ccccc1-c1ccccc1[C@@H]1[C@@H](C#N)N(C(=O)CN(C)C)[C@H]1CO
4,-9.0,5,-3.2,COc1ccc2c3c(n(C)c2c1)[C@H](CO)N(C)CC31CCN(C(=O)NC(C)C)CC1
-6,14,-10,1.7,CN1c2ccc(C#Cc3cccnc3)cc2[C@@H]2[C@@H](CCN2C(=O)C2CCCC2)[C@@H]1CO
2,-5.2,7,-2.1,COCCCN1C(=O)C(CC(=O)NC2CCCCC2)CC(C(=O)N(C(C)C)C(C)C)=C1C (configuration not stated)
1,-2.1,0,0.7,Cn1cnc(S(=O)(=O)N2CCCCN3[C@H](CO)[C@@H](c4ccc(-c5ccccc5)cc4)[C@H]3C2)c1
3,-1.2,6,2.1,CN(C)C(=O)C[C@H]1CC[C@@H]2[C@@H](COc3ccc(NC(=O)c4ccc(F)cc4)cc3C(=O)N2C)O1
-6,-8.4,-7,2.3,COc1cccc(CNC(=O)[C@H]2CCCN2C(=O)[C@H]2CCCN2C(=O)c2cccc3ccccc23)c1
5,-1.1,11,-1.7,O=C(c1ccc(C(F)(F)F)cc1)N(CCCn1ccnc1)C(c1ccccn1)c1nc2ccccc2[nH]1 (configuration not stated)
5,5.6,12,3.2,O=C(Nc1ccc2c(c1)OCCO2)C(c1ccnc2ccccc12)n1c(=O)c(-c2ccco2)nc2ccccc21 (configuration not stated)
4,1.6,8,-2.0,C[C@@H]1CN([C@H](C)CO)S(=O)(=O)c2ccc(-c3ccccc3)cc2O[C@H]1CN(C)C(=O)c1ccc2c(c1)OCO2
2,-1.3,-3,2.0,COc1ccc(S(=O)(=O)N(C)C[C@@H]2Oc3ccc(NS(=O)(=O)c4c(C)noc4C)cc3CC(=O)N([C@@H](C)CO)C[C@@H]2C)cc1
